Bioassay records (PubChem)
STK33 inh = inhibitors of purified STK33 kinase, primary screen, biochemical, ADP-Glo luminescence, homogeneous, cell-free; Serine/threonine-protein kinase 33 (Homo sapiens), Q9BYT3; MBP phosphorylation; inhibition, % at 10 µM; 0.073% of 320,000 active;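 active = inhibition at or above 25%, using the most active replicate where run in duplicate; inactive = inhibition below 25%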
Target sequence (Q9BYT3 whole entry, looked up): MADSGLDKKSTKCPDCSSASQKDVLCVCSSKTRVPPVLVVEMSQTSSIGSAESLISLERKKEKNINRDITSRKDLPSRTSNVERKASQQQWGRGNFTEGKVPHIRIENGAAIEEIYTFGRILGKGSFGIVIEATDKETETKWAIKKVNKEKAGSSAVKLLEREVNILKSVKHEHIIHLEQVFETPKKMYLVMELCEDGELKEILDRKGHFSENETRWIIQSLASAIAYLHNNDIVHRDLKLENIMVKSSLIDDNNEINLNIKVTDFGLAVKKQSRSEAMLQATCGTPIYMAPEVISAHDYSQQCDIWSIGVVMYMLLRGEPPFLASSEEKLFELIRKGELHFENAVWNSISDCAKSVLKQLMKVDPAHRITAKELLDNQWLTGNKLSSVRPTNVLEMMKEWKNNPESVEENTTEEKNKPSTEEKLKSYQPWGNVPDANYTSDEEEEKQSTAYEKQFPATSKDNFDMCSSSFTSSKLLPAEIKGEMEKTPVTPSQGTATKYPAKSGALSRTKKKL
Starred values were filed as active, the others as inactive.

STK33 inh	smiles
-1.7	Cc1cccc(CSC2=NCCN2C(=O)c2ccc(Br)o2)c1
0.1	Brc1ccccc1-n1nnc(-c2cccnc2)n1
-0.6	CSc1cccc(CN2CCCC(CNC(=O)c3ccco3)C2)c1 (configuration not stated)
-1.0	COc1cc(/C=N/NC(N)=O)c(Br)cc1OCC(=O)Nc1ccccc1C
1.6	Cc1cccc(CSC2=CS(=O)(=O)c3ccccc3N2)c1
0.8	O=C(O)c1c[nH]c(=O)c2ccccc12
-0.5	CS(=O)(=O)n1nc(-c2ccccc2)nc1NCc1ccco1
-0.4	Cc1ccc(C)c(/C=C(\C(=O)O)c2ccc(S(=O)(=O)N3CCCCC3)s2)c1
0.6	COc1cc2c(cc1NC(=O)CSc1nnc(Cc3cccs3)n1C)oc1ccccc12
-1.6	CCOc1ccc(CN(Cc2ccco2)S(=O)(=O)c2ccc(-n3cnnn3)c(OC)c2)cc1
-0.4	Cc1nc(CC(=O)NNS(=O)(=O)c2ccc3ccccc3c2)cs1
-0.6	CC(C)(C)NC(=O)CSCc1c(Cl)cccc1Cl
-1.1	Cc1ccnc(NC(=O)c2cccc(NC(=O)COc3ccccc3)c2)c1
-0.6	CCOC(=O)C1CCN(S(=O)(=O)c2cccc3nonc23)CC1
-0.3	COc1ccccc1N1CCN(C(=O)c2cc3cc(F)ccc3[nH]2)CC1
-0.4	O=C(CCCSc1nnc(Nc2ccccc2F)s1)N1CCOCC1
-0.1	COc1ccc(C(=O)CSc2nnc(COc3ccccc3)n2Cc2ccco2)cc1
0.6	CC(C)Cn1c(-c2csc3ccccc23)n[nH]c1=S
1.1	COc1ccccc1C(=O)NNC(=O)c1ccc(NS(=O)(=O)c2cccs2)cc1
-0.5	Cc1c(Cc2ccccc2)c(=O)oc2cc(OCC(=O)NCC(O)c3ccccc3)ccc12 (configuration not stated)
-2.1	C/C(=N\Nc1ncc(Cl)cc1Cl)c1ccc(OC(F)F)cc1
-0.9	O=C(CCc1nnc2ccc(N3CCCC3)nn12)Nc1ccc(F)cc1F
-2.6	CN(C)c1ccc(P(=O)(OC2CCCCC2)C(O)c2cccnc2)cc1 (configuration not stated)
0.1	CCOC(=O)N1CCN(S(=O)(=O)c2ccc3c(c2)CCN3C(=O)CC)CC1
-0.9	CCC(=O)N1CCc2cc(S(=O)(=O)NC(C(=O)Nc3cccc(C)n3)C(C)C)ccc21 (configuration not stated)
-2.6	O=C(c1ccccc1/S(=N/S(=O)(=O)c1ccccc1)N1CCOCC1)N1CCOCC1 (configuration not stated)
1.9	CSc1ccc(S(=O)(=O)NCC(=O)OCC(=O)N(Cc2ccccc2)C(C)C)cc1[N+](=O)[O-]
1.0	Cc1onc(-c2c(Cl)cccc2Cl)c1C(O)c1ccccc1 (configuration not stated)
0.2	CCCn1c(SCC(=O)Nc2nnc(CC)s2)nnc1-c1ccco1
-1.9	CCN(CC)C(=O)CSc1nnc(CSc2ncccn2)n1C
1.1	CCN1C(=O)C(CC(=O)Nc2ccc(OC)cc2)N(CCCN2CCN(c3ccc(OC)cc3)CC2)C1=S (configuration not stated)
-1.6	CC(=O)OC(C(=O)N1CCN(c2ccc(F)cc2)CC1)c1ccccc1 (configuration not stated)

2 of the compounds above, field by field.
> Cc1onc(-c2c(Cl)cccc2Cl)c1C(O)c1ccccc1 (configuration not stated)
  STK33 inh: 1.0

> CCN(CC)C(=O)CSc1nnc(CSc2ncccn2)n1C
  STK33 inh: -1.9

Additional records.
STK33 inh	smiles
-2.1	Cn1nccc1C(=O)NC(=S)Nc1cc(Cl)cc(Cl)c1
-0.8	CCc1ccccc1NC(=O)CNC(=O)c1ccc(-n2cncn2)c([N+](=O)[O-])c1
-0.2	CC1=NN(C(=O)c2ccoc2C)C(O)(C(F)(F)F)C1 (configuration not stated)
4.3	COc1ccc(NC(=O)c2cc(-c3ccc4c(c3)OCO4)on2)cc1
-0.7	CC1(C)NC(=O)N(CCOCCOc2cccc(Oc3ccccc3)c2)C1=O
2.0	CC1(C)C(=O)Nc2ccccc2N1C(=O)c1ccc([N+](=O)[O-])cc1
0.7	CCN1CCN(C(=O)Cn2c(=O)sc3ccccc32)CC1
1.5	CN(C)NC(=S)Nc1ccc(Cl)cc1
0.8	C=CCc1c(C)nc2ccc(C(=O)OCC)cc2c1Cl
0.1	Cc1sc2nc3ccc(NCc4ccco4)nn3c(=O)c2c1C
-0.9	CCOC(=O)c1c(NC(=O)COC(=O)c2ccc([N+](=O)[O-])cc2)sc(C(=O)N(C)C)c1C
-3.2	COc1ccc(-c2cc(C(F)(F)F)nc(NCc3cccs3)n2)cc1
-1.9	COc1cc(OC)cc(C(=O)NC(=S)N(Cc2ccccc2)C(C)C)c1
-1.0	CCOC(=O)C1=C(C)N(Cc2ccccc2)C(=O)NC1c1ccc(OC)cc1 (configuration not stated)
-0.7	COc1ccc(Br)cc1C1SCCN1S(C)(=O)=O (configuration not stated)
0.0	Cc1ccc(CNC(=O)Cn2nnc3ccccc3c2=O)cc1
1.1	O=C(Cc1cccs1)Nc1nnc(SCc2ccc(F)cc2)s1
0.3	COc1ccc(CN2CCCC(C(=O)N3CCCC3)C2)cc1 (configuration not stated)
0.0	O=C(NC(NC1CCS(=O)(=O)C1)C(Cl)(Cl)Cl)c1ccc(Br)cc1 (configuration not stated)
0.0	CC(C)COC(=O)Nc1ccccc1C(=O)N1CCOCC1
7.6	Cc1onc(-c2ccccc2Cl)c1C(=O)NC(C)c1ccccc1 (configuration not stated)
-2.3	COc1ccccc1-n1c(SCC(=O)c2ccc(O)cc2O)nc2cc([N+](=O)[O-])ccc21
5.3	O=C1c2cccc3c(O)ccc(c23)C(=O)N1Cc1ccccc1
0.3	O=C(CCN1CCN(c2ccc([N+](=O)[O-])cc2)CC1)c1ccc(Cl)cc1

Reprinted at random: two compounds from above, in no set order.
STK33 inh	smiles
0.3	COc1ccc(CN2CCCC(C(=O)N3CCCC3)C2)cc1 (configuration not stated)
-2.3	COc1ccccc1-n1c(SCC(=O)c2ccc(O)cc2O)nc2cc([N+](=O)[O-])ccc21

Carrying on:
STK33 inh	smiles
-0.9	CC(=O)Nc1ccc(C(=O)COC(=O)CCN2C(=O)C3CC=CCC3C2=O)cc1 (configuration not stated)
1.0	CC1CCc2ccccc2N1C(=O)c1cccs1 (configuration not stated)
1.2	O=C(CCl)N=c1sccn1Cc1ccc(Cl)cc1Cl
-1.5	CS(=O)(=O)Nc1ccc(C(=O)NCCSCc2c(F)cccc2Cl)cc1
0.1	Fc1ccccc1NC(=S)N1CCN(c2ccccn2)CC1
-1.8	CCC1CCCCN1C(=O)CSc1nnc(-c2ccc(OC)cc2)o1 (configuration not stated)
0.5	CCO[C@@H]1OC(C(=O)N2CCOCC2)=C[C@H](C2CCCCC2)[C@H]1CCCO
-2.2	COc1ccc(C(=O)NNC(=S)NC2CCCCC2)cc1OC
-12.2	O=C(/C=C/c1cccs1)Nc1nc(-c2ccccc2)cs1
-0.1	Cc1[nH]c2ccc(C(=O)O)cc2c1C
0.0	O=C(CSc1nc2ccccc2c2c1CCCC2)N1CCOCC1
0.4	CCS(=O)(=O)Nc1ccc2c(c1)OCO2
0.7	O=C(NCc1ccccc1)C(c1ccccc1)N(C(=O)c1csnn1)C1CC1 (configuration not stated)
-0.4	O=C(CSc1nnc(NC(=O)c2ccc(F)cc2)s1)NCc1ccco1
-0.1	CCOC(=O)c1cnc2ccc(C)cn2c1=O
-1.5	CC(=O)c1cccc(NC(=O)C(C)N2CCc3ccccc3C2)c1 (configuration not stated)
-0.2	CC(C)c1ccc(NC(=O)C2C3C=CC(CC3)C2C(=O)O)cc1 (configuration not stated)
-1.4	FC(F)(F)c1cc(CCN2C(=S)NC[C@@H]2CC2CCCCC2)cc(C(F)(F)F)c1
-12.7	c1ccc(CSc2cc3ccccc3[nH]2)cc1
0.3	O=C(Nc1ccc(S(=O)(=O)NC2=NCCCCC2)cc1)c1ccc([N+](=O)[O-])s1
-3.1	COc1cccc(C2=NN(C(=O)c3ccccc3)C(O)(C(F)(F)F)C2)c1 (configuration not stated)
-0.1	COc1cccc(CN2CC(C(=O)N(C)Cc3[nH]c4ccccc4c3C)CCC2=O)c1 (configuration not stated)
2.4	COc1ccc(NC(=O)C2C3CCC(O3)C2C(=O)O)cc1OC (configuration not stated)
-1.6	O=C(COC(=O)/C=C/c1cccc(Br)c1)NCCC1=CCCCC1

Among those listed so far, 6 have an NH in an aromatic ring.
STK33 inh	smiles
0.8	O=C(O)c1c[nH]c(=O)c2ccccc12
-0.3	COc1ccccc1N1CCN(C(=O)c2cc3cc(F)ccc3[nH]2)CC1
0.6	CC(C)Cn1c(-c2csc3ccccc23)n[nH]c1=S
-0.1	Cc1[nH]c2ccc(C(=O)O)cc2c1C
-12.7	c1ccc(CSc2cc3ccccc3[nH]2)cc1
-0.1	COc1cccc(CN2CC(C(=O)N(C)Cc3[nH]c4ccccc4c3C)CCC2=O)c1 (configuration not stated)

Additional entries.
STK33 inh	smiles
0.3	Cc1ccc(-n2cc[nH]c2=S)c(C)c1
-1.2	Cc1cc(=O)oc(C)c1C(=O)Nc1ccc2nsnc2c1
-1.7	C=CSc1sc(Cl)c(N(CC)CC)c1[N+](=O)[O-]
-0.9	CCOC(=O)CNS(=O)(=O)c1ccc(C)cc1
-0.9	N#Cc1ccc(C23CC4(C2)[C@H](CN(Cc2ccc(-c5ccccc5)cc2)[C@@H]4c2ccccc2)C3c2ccc(C(F)(F)F)cc2)cc1 (some centres not stated)
0.4	CCc1nnc(NC(=O)CSc2nc3ccccc3c(=O)n2CCCOC)s1
-2.2	CN1CCN(C(=O)/C(=C/c2ccccc2Cl)NC(=O)c2ccccc2)CC1
-1.8	CCN1CCN(CCCN(Cc2cccs2)C(=S)Nc2ccccc2C)CC1
-0.9	O=C(NCc1ccccn1)C(=O)NCC(c1ccco1)N1CCOCC1 (configuration not stated)
0.6	Cc1ccccc1NC(=O)C1CCN(c2cc(-c3ccccc3)nc3ncnn23)CC1
-0.8	Cc1c(CCO)c(=O)[nH]n1S(=O)(=O)c1cccc(C(F)(F)F)c1
0.0	CCN(CC)S(=O)(=O)c1ccc2[nH]cc(C(=O)NCCCN3CCCCC3)c(=O)c2c1
-1.2	Cc1ccc(OCC(=O)NC2CCCc3ccccc32)c(C)c1 (configuration not stated)
0.0	CCOC(=O)c1c(NC(=O)CCl)sc(CN(C)C)c1-c1ccccc1
-1.6	Cc1ccc(C)c(NC(=O)NNC(=O)c2cc3ccccc3cc2O)c1
-1.1	O=C1COc2ccc(C(=O)NCc3ccco3)cc2N1
-0.3	COCC(=O)NC1CC2CCC(C1)N2C(=S)Nc1ccccc1C(=O)OC (configuration not stated)
-3.2	COc1cc(C2(O)CCCCC2C)cc(OC)c1OC (configuration not stated)
-1.5	Cc1ccc(NC(=S)NC2CCSc3ccccc32)cc1 (configuration not stated)
0.1	O=C(Nc1nccs1)C1CC(=O)N(c2ccc(Cl)cc2)C1 (configuration not stated)
0.3	CCc1noc(C)c1C(=O)Nc1cccc2ncccc12
0.8	CSc1nc(NCCOCCO)c2sc3nc(-c4ccco4)c4c(c3c2n1)CCC4
-0.9	COc1ccc(S(=O)(=O)N2CCOCC2)cc1NC(=O)c1ccc(Cl)cc1
-0.2	Cc1ccc(NC(=O)c2ccc3c(=O)n4c(nc3c2)CCCCC4)cc1F
-0.6	CCCN(CCC)CCCNC(=O)Cn1cnc2sc(C)c(S(=O)(=O)N3CCCCC3)c2c1=O
-0.3	Cc1ccc(C(=O)O/N=C/c2c(C)nn(C)c2Cl)cc1
6.0	COc1ccc(/C=C2/SC(=O)NC2=O)cc1
-1.3	CCN(CC)C(=O)CSc1nnc(CCCCCNC(=O)OC(C)(C)C)o1
0.2	Cc1cc(Cl)ccc1NC(=S)NCCc1ccc(Cl)cc1
-0.1	COc1cc2nc(CN3CCN(S(=O)(=O)c4ccc(Cl)cc4)CC3)[nH]c(=O)c2cc1OC
-1.1	O=C(N/N=C/CCc1ccccc1)c1ccc(CN2c3cccc4cccc(c34)S2(=O)=O)cc1
0.0	O=C(Cn1cnc2c(nnn2Cc2ccc(F)cc2)c1=O)Nc1ccc2c(c1)OCCO2
-0.7	CN(C)CCCN(C(=O)c1ccc(S(=O)(=O)N2CCCC2)cc1)c1nc2ccc(Br)cc2s1
0.4	O=C(Nc1cc2ccccc2oc1=O)c1ccccc1
-1.4	CCOc1ccccc1N1C(=O)c2cccnc2C1=O
-1.1	COC(=O)c1ccc(NC(=O)Cn2nnc(-c3cccs3)n2)cc1
-2.1	O=C(O)c1csc(-c2ccc(Cl)cc2)n1
-2.3	CC(C)(C)NC(=S)NNC(=O)c1ccncc1
-0.1	O=C(NCCS(=O)(=O)N1CCN(c2ccccc2F)CC1)C1CC(=O)N(c2ccc(F)cc2)C1 (configuration not stated)
-1.2	CCOC(=O)c1cc(NC(=O)Nc2ccc(Br)cc2)c(C)nc1C

The closing 7 records of the section before are carried over, then new ones follow.
STK33 inh	smiles
0.4	O=C(Nc1cc2ccccc2oc1=O)c1ccccc1
-1.4	CCOc1ccccc1N1C(=O)c2cccnc2C1=O
-1.1	COC(=O)c1ccc(NC(=O)Cn2nnc(-c3cccs3)n2)cc1
-2.1	O=C(O)c1csc(-c2ccc(Cl)cc2)n1
-2.3	CC(C)(C)NC(=S)NNC(=O)c1ccncc1
-0.1	O=C(NCCS(=O)(=O)N1CCN(c2ccccc2F)CC1)C1CC(=O)N(c2ccc(F)cc2)C1 (configuration not stated)
-1.2	CCOC(=O)c1cc(NC(=O)Nc2ccc(Br)cc2)c(C)nc1C
0.0	O=C(CSc1nc2ccccc2o1)N/N=C/c1ccc(C(=O)O)cc1
-0.7	Cc1[nH]c2ccccc2c1C(=O)C(=O)N1CCN(c2ccccc2Cl)CC1
-1.3	COCCn1nnnc1C(c1cccs1)N1CCN2CCCC2C1 (configuration not stated)
-1.2	CCc1ccc2nc(Nc3nc(COC)cc(=O)[nH]3)nc(C)c2c1
-2.4	Cc1cc(N2CCOCC2)c(F)cc1C(=O)c1ccccc1
-1.3	CCCC(=O)N1CCN(S(=O)(=O)c2cc(Cl)ccc2OC)CC1
0.1	CN1CCN(S(=O)(=O)c2cc([N+](=O)[O-])ccc2Cl)CC1
-0.1	CCOc1cc(C(=S)N2CCOCC2)ccc1OS(=O)(=O)c1ccccc1[N+](=O)[O-]
-0.8	CCOC(=O)c1oc2ccc(Br)cc2c1CSc1nnc(C)s1

These rows are one share of the data, and most or all hits are left out here.
